Bioassay records from PubChem BioAssay.
VACV E9 pol inh – vaccinia E9 polymerase processive synthesis inhibitors, primary screen, biochemical, absorbance; in vitro processive DNA synthesis, absorbance read-out; active compounds read low; some inactives read as strong as hits; normalized absorbance, % (no concentration beside the values); 46,000 compounds, 0.94% hits; AID 493162, 2011;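 active means replicate mean up to 90% and picked by the depositor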;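 further: 100% = median of the test wells of a plate; 100 nL library stock went into each well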
* hit, by the source's call. Some of the compounds tested (hit frequency here may not be typical).

Start of the data: the first 4 entries, to show the layout:
Structure | VACV E9 pol inh
Cc1onc(-c2c(Cl)cccc2Cl)c1N(C)C(=O)N1CCCCC1 | 100
CCC(=O)Nc1ncnc2sc3c(c12)CCCC3 | 102
O=C(O)c1csc(Cc2ccccc2)n1 | 92
CCOC(=O)C1CCC(CN(Cc2ccccc2)S(=O)(=O)c2ccc(F)c(C)c2)CC1 (stereo unspecified) | 98

The whole of this part, repeating the preview:
Structure | VACV E9 pol inh
Cc1onc(-c2c(Cl)cccc2Cl)c1N(C)C(=O)N1CCCCC1 | 100
CCC(=O)Nc1ncnc2sc3c(c12)CCCC3 | 102
O=C(O)c1csc(Cc2ccccc2)n1 | 92
CCOC(=O)C1CCC(CN(Cc2ccccc2)S(=O)(=O)c2ccc(F)c(C)c2)CC1 (stereo unspecified) | 98
Cc1ccc2nc(C)c3c(c2c1)N(c1ccccc1)CC3 | 62*
CC(NC(=O)Nc1ccc2c(c1)N(C)C(=O)c1ccccc1S2)c1ccccc1 (stereo unspecified) | 110
CCn1cc(C(=O)Nc2ccc(OC)cc2)c(=O)c2ccc(C)nc21 | 100
CC1=NC(C(F)(F)F)(C(F)(F)F)N=C(N2CCCCC2)O1 | 107

New compounds follow.
Structure | VACV E9 pol inh
CC(C)Oc1ccc2c(=O)cc(-c3ccccc3)oc2c1 | 102
CCCCN(C)C(=O)c1noc2c1COc1ccccc1-2 | 100
O=C(O)c1cc2c(ccc3ccccc32)oc1=O | 98
Cc1oc2cc(Br)c(O)c(Br)c2c1-c1ccccc1 | 100
Cc1oc2cc(O)ccc2c(=O)c1-c1ccccn1 | 106
CCN1C(=O)c2ccc(C(=O)Nc3cc(C(=O)O)cc(C(=O)O)c3)cc2C1=O | 100
Cc1cc2ccccc2n1CCNC(=O)c1cc2ccccc2oc1=O | 100
Cc1ccc(C)c(OC(=O)c2cccnc2Cl)c1C | 107

(next part)
Structure | VACV E9 pol inh
O=C(O)CNS(=O)(=O)c1ccccc1 | 100
COC(=O)c1ccc(NC(=O)COc2cccc3ccccc23)cc1 | 100
CC1CCCCC1N=C1NC(C)(C)CS1 (stereo unspecified) | 105
Cc1nnsc1-c1onc(C)c1C(N)=O | 101
NC1(C(=O)O)CCCC1 | 100
Cc1ccc(-c2nc(CS(=O)(=O)CC(=O)NCC3CCCO3)c(C)o2)cc1 (stereo unspecified) | 104
Cc1c(C(=O)O)nn(-c2ccc(Cl)cc2)c(=O)c1C#N | 100
Clc1ccc(OCc2cn3ccccc3n2)cc1 | 100

Next part
Structure | VACV E9 pol inh
Cc1cc(C(=O)N2C=CC(C(F)(F)F)=NCC2)nn1C | 103
CCOC(CSc1nc2ccccc2[nH]1)OCC | 101
CN1C(=O)C(C)(C)c2cc(S(=O)(=O)NCCN3CCN(c4ccccc4F)CC3)ccc21 | 104
O=C(CC(NC1CCCCC1)C(=O)O)c1ccc(C2CCCCC2)cc1 (stereo unspecified) | 95
O=C(CSc1ccc(Cl)cc1)N1CCc2ccccc21 | 100
O=C(CN1C(=O)c2ccccc2C1=O)Nc1ccc(F)cc1 | 101
O=C(Nc1nc2nc(-c3ccccc3)cc(-c3ccccc3)n2n1)c1ccccc1 | 100
COc1ccccc1C1(CC(=O)O)CCOC(C)(C)C1 (stereo unspecified) | 110

Copied from above for reference:
Structure | VACV E9 pol inh
O=C(CC(NC1CCCCC1)C(=O)O)c1ccc(C2CCCCC2)cc1 (stereo unspecified) | 95
O=C(CSc1ccc(Cl)cc1)N1CCc2ccccc21 | 100
O=C(CN1C(=O)c2ccccc2C1=O)Nc1ccc(F)cc1 | 101
O=C(Nc1nc2nc(-c3ccccc3)cc(-c3ccccc3)n2n1)c1ccccc1 | 100
COc1ccccc1C1(CC(=O)O)CCOC(C)(C)C1 (stereo unspecified) | 110

Further records:
Structure | VACV E9 pol inh
O=C(O)CC1(CC(=O)Nc2ccc(Cl)cc2)CCCC1 | 100
COc1ccc(C2=NS(=O)(=O)N(C)C(C(=O)N3CCC(C(N)=O)CC3)=C2)cc1 | 70*
CCc1ccc(NC(=O)NC(C)c2c(-n3cccc3)sc3c2CCCC3)cc1 (stereo unspecified) | 86
CCOc1ccc2ccccc2c1C=C1C(=O)N(C)C(=S)N(C)C1=O | 100
O=C(c1ccccc1F)n1c2c(c3ccccc31)CCCC2 | 98
COc1cc2c(cc1OC)C(C#N)N(C(=O)c1ccccc1)C=C2 (stereo unspecified) | 96
O=C(CNc1ccccc1-c1ccccc1)NCc1ccccc1 | 102
O=C(Nc1ccccc1)c1scc2c1CCCC2 | 100

The results go on.
Structure | VACV E9 pol inh
CCC1CCCCN1C(=O)COC(=O)c1ccc(C#N)cc1 (stereo unspecified) | 102
OC(COC(c1ccc(Cl)cc1)c1ccc(Cl)cc1)CN1CCCC1 (stereo unspecified) | 105
CC(C)c1ccc2c(c1)c1c3c(cncn32)CCC1 | 100
COc1cccc(NC(=O)c2cc3ccccc3oc2=O)c1 | 97
O=C(O)/C=C1\SC(=O)NC1=O | 98
O=C(OCCSC1=NS(=O)(=O)c2ccccc21)c1ccccc1 | 101
O=C(CCSCc1cccc(F)c1)N1CCc2ccccc21 | 99
CC(=O)NCc1nc2ccccc2n1Cc1ccccc1F | 100

Other compounds follow:
Structure | VACV E9 pol inh
Cc1c(-c2ccnn2C(=O)c2ccc(C(F)(F)F)cc2)sc2ccccc12 | 96
O=c1[nH]c2ccccc2nc1/C=C(\O)c1cccc2ccccc12 | 100
CC1CCCC(C)N1CCCNC(=O)NCc1noc2ccccc12 (stereo unspecified) | 100
CCC(C)[C@H]1O[C@]2(C=C[C@@H]1C)C[C@@H]1C[C@@H](C/C=C(\C)[C@@H](OC3C[C@H](OC)C(O[C@H]4C[C@H](OC)[C@@H](O)[C@H](C)O4)[C@H](C)O3)[C@@H](C)/C=C/C=C3\CO[C@@H]4[C@H](O)C(C)=C[C@@H](C(=O)O1)[C@]34O)O2 (stereo partly specified) | 99
CCOC(=O)c1ccc2nc(NC(=O)c3ccco3)sc2c1 | 99
CCOC(=O)c1c(CNC(C)C)oc2ccc(OC)cc12 | 96
CN1C(=O)NC(c2ccc(O)cc2)C2=C1CN(CCO)C2=O (stereo unspecified) | 100
CC1CC(C)CN(CC(O)Cn2c3ccccc3c3ccccc32)C1 (stereo unspecified) | 92

Remaining list, next part:
Structure | VACV E9 pol inh
COC1=C/C(=C/c2c(N)n3c(SC(C)C)nsc3nc2=O)C=CC1=O | 85
CN(C)CCC=C1c2ccccc2CCc2ccccc21 | 100
Cc1ccc2[nH]c3c(c2c1)CCCC3Nc1ccc(Cl)cc1 (stereo unspecified) | 92
CC(C)(C)C(=O)NCCn1ccc2ccccc21 | 91
Cc1ccccc1NC(=O)CSc1[nH]c(=O)cc(C)c1C#N | 99
NNc1ccc(Br)cc1 | 54*
CSC(SC)=C(C#N)C(=O)c1cccc(C(F)(F)F)c1 | 78
COc1ccc(C(=O)/C=C/Nc2ccc(S(=O)(=O)Nc3cnc4ccccc4n3)cc2)cc1 | 100

New compounds follow:
Structure | VACV E9 pol inh
Cc1cc2cc(CNC(=O)CCC3CCCC3)ccc2n1C | 101
COc1ccc(Br)cc1CNC(=O)C1CCCN(S(C)(=O)=O)C1 (stereo unspecified) | 98
COc1ccc(C)cc1N(C)C(=O)c1cc2c(=O)[nH]c3ccc(C)cc3c2s1 | 96
O=C(Nc1cccc2ccccc12)c1cc2ccccc2oc1=O | 98
CCCc1cc(=O)oc2cc(OC)ccc12 | 89
Cc1nn(C(C)(C)C)c(C(=O)Sc2cccc(C(F)(F)F)c2)c1Br | 100
Cc1cc(Cc2cccs2)c(=O)[nH]n1 | 98
O=C(NCCc1ccc(F)cc1)c1ccco1 | 105

More entries follow:
Structure | VACV E9 pol inh
O=c1/c(=C\c2ccccc2)sc2nc3ccccc3n12 | 102
CC1CCCN(CC(O)COCc2ccc(Cl)cc2)C1 (stereo unspecified) | 99
CC(N)Cc1ccc2c(c1)OCO2 (stereo unspecified) | 98
Cc1ccc(OCC(O)CNc2ccc(Br)c(C(F)(F)F)c2)cc1C (stereo unspecified) | 108
COc1cccc(NC(=O)C2c3ccccc3C(=O)N3CCc4ccccc4C23)c1 (stereo unspecified) | 103
CCOC(=O)N1CCC(n2c(SCc3ccc(F)cc3Cl)nc3ccsc3c2=O)CC1 | 101
Cc1ccc(-n2nnnc2-c2cnn(-c3ccccc3)c2C)cc1 | 106
COc1ccc(-c2cc(-c3ccccc3)nc(SCC(N)=NC#N)c2C#N)cc1 | 100

(next part)
Structure | VACV E9 pol inh
Cc1[nH]nc(N)c1C1(O)C(=O)Nc2c(Cl)cc(Cl)cc21 (stereo unspecified) | 101
COc1ccccc1NC(=O)CSc1nc2ccccc2o1 | 100
CC(NC(CC(=O)c1ccc(F)cc1)C(=O)O)c1ccccc1 (stereo unspecified) | 98
CC1=C(C(=O)N2CCCCC2)C(c2cccs2)C2=C(CCCC2=O)N1 (stereo unspecified) | 101
Cc1ccc(/C=C/C(=O)O)o1 | 91
Cc1nn(C)c2c1S(=O)(=O)N=C(N1CCOCC1)S2 | 100
CCC1CCCCN1C(=O)CSc1ncnc2ccccc12 (stereo unspecified) | 107
c1ccc(N=C2OCC(COc3ccccc3)S2)cc1 (stereo unspecified) | 99

The listing continues.
Structure | VACV E9 pol inh
COC(=O)c1cn(-c2cccc(C)n2)cn1 | 81
Cc1cc(C(=O)N2N=C(C3CC3)CC2(O)C(F)(F)F)c2ccccc2n1 (stereo unspecified) | 100
C=CCSc1nc2sc3c(c2c(=O)n1-c1ccc(C)cc1)CCC3 | 100
Nc1nc(-c2ccccc2)nc2sc3c(c12)CCCC3 | 104
O=C(Nc1ccc(Cl)cc1)c1csc(COc2ccc3nonc3c2)n1 | 98
O=C(O)CCN=C1CCCc2ccccc2N1 | 100
CC1CCc2nc(NC(=O)C(C)C)sc2C1 (stereo unspecified) | 108
CSc1sc(NC(=O)N2CCOCC2)c(-c2ccc(Cl)cc2)c1C#N | 102

Going on with the list:
Structure | VACV E9 pol inh
CCN(CC)CCN1Cc2c(sc(C)c2C)N(C(=O)c2ccccc2)C1 | 95
CC(C[N+](C)(C)C)OC(=O)C1(c2ccccc2)CCCC1 (stereo unspecified) | 100
CCOC(=O)c1cncc(C#CCOC(=O)c2c(-c3ccccc3)noc2C)c1 | 104
C=CCN(CC=C)S(=O)(=O)c1ncn[nH]1 | 96
CCOC(=O)c1n[nH]c(=S)[nH]c1=O | 101
CC(=O)Nc1ccc(NC(=O)C(C)OC(=O)C2CC3C=CC2C3)cc1 (stereo unspecified) | 105
C=CCC(Nc1ccc(OC)cc1)c1ccco1 (stereo unspecified) | 101
CC12CCC(C(=O)N3CCCc4ccccc43)(OC1=O)C2(C)C (stereo unspecified) | 101

Following part.
Structure | VACV E9 pol inh
CN(CCC#N)C(=O)c1cc2c(s1)-c1ccccc1S(=O)(=O)C2 | 92
N#Cc1cnn2c(-c3ccccc3)ccnc12 | 107
COc1cc2c3c(ccc2c(OC)c1OC)-c1[nH]ncc1CC3 | 96
CC(C)n1c(COc2ccc(Cl)cc2)nc2ccccc21 | 100
CCN1CC(=O)N(c2ccccc2OC)C1=S | 94
Cc1cccc(C(=O)Nc2ccc(N3CCN(C(C)C)CC3)cc2)c1 | 92
FC(F)(F)c1ccccc1N=C1CCCc2ccccc21 | 86
Cc1cccc(C(=O)OCC(=O)N2CC(C)CC(C)C2)c1C (stereo unspecified) | 90

New compounds follow
Structure | VACV E9 pol inh
N#CCC(=O)Nc1cccc2ccccc12 | 101
CCN1CCCC1CNCc1ccccc1 (stereo unspecified) | 100
N=c1oc2ccccc2cc1-c1nnc2n1CCCCC2 | 102
CCCNC(=O)c1ccc2nc(N3CCCCC3)sc2c1 | 94
CSc1nc(Nc2cccc(C(F)(F)F)c2)cc(C(F)(F)F)c1C#N | 112
COc1ccc(C=C2C(=O)OC(C)(C(C)(C)C)OC2=O)cc1 (stereo unspecified) | 100
CCOC(=O)N1CCN(C(=O)C2CCN(S(=O)(=O)N(CC)CC)CC2)CC1 | 110
COc1cccc(NC(=S)N(Cc2ccccc2)Cc2ccc(C)o2)c1 | 81

Going on with the list:
Structure | VACV E9 pol inh
O=C(CCc1ccccc1)Nc1nnc(SCc2ccc(F)cc2)s1 | 98
COc1ccc(NC(=O)c2cc3cc(OC)ccc3oc2=N)cc1 | 99
CCOC(=O)c1cnn2c1nc(N1CC(C)CC(C)C1)c1ccccc12 (stereo unspecified) | 109
N#CC(=C(/N)Sc1ccccc1N)/C(C#N)=C(\N)Sc1ccccc1N | 99
CCOc1ccc(-c2nc(CSCC(=O)NC3CCCC3)c(C)o2)cc1 | 95
Cn1[nH]c(CSc2ccccc2)cc1=O | 102
CCOC(=O)c1c(N)c(C#N)c2n1CCCCC2 | 100
CNC(=O)CC12CC3CC(CC(C3)C1)C2 | 100

Reprinted at random: five compounds from above
Structure | VACV E9 pol inh
CCOc1ccc(-c2nc(CSCC(=O)NC3CCCC3)c(C)o2)cc1 | 95
CCOC(=O)c1cnn2c1nc(N1CC(C)CC(C)C1)c1ccccc12 (stereo unspecified) | 109
CNC(=O)CC12CC3CC(CC(C3)C1)C2 | 100
Cn1[nH]c(CSc2ccccc2)cc1=O | 102
COc1ccc(NC(=O)c2cc3cc(OC)ccc3oc2=N)cc1 | 99

Additional records
Structure | VACV E9 pol inh
C(=Nc1ccc2ccccc2c1)c1ccncc1 | 100
C=CCNC(=O)c1cnn2c(C(F)(F)F)cc(-c3cccs3)nc12 | 100
CCOC(=O)C/C(C)=N/c1ncn(-c2ccc(OC)cc2)c1C(=O)c1ccccc1 | 100
O=C(NCCCN1CCN(Cc2ccccc2)CC1)c1cn2cc(C(F)(F)F)cc(Cl)c2n1 | 90
O=C(NO)c1ccccc1 | 102
CCOC(=O)c1c(-c2ccccc2)nc2ccccn12 | 87
O=C(Cc1ncc(C(F)(F)F)cc1Cl)NC1CCCC1 | 99
Oc1ccc2ccccc2c1CN1CCN(Cc2ccc3c(c2)OCO3)CC1 | 100
Cc1ccc(S(=O)(=O)N(C(=O)Oc2ccccc2)c2ccc3oc(=O)sc3c2)c(C)c1 | 86
